High-throughput results deposited in PubChem BioAssay by National Center for Advancing Translational Sciences (NCATS).
TRPML1 inh: blocks the human TRPML1 channel. TRPML1-inducible cells, Ca2+ dye fluorescence, FDSS; active compounds read low; inhibition of EC80 agonist-evoked calcium signal. activity change, negative = inhibition, % (concentration not given with the values). 0.02% of 390,000 active; in the data active means activity change below about -50%; inconclusive means about -30% to -50%; inactive means above about -30%;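 also: stimulus is agonist 54-4 at its EC80 concentration; % is scaled to controls: 0 for no effect and ±100 for the full control effect; the text of the record puts the active cut at -80%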
Target sequence (Q9GZU1 whole entry, looked up): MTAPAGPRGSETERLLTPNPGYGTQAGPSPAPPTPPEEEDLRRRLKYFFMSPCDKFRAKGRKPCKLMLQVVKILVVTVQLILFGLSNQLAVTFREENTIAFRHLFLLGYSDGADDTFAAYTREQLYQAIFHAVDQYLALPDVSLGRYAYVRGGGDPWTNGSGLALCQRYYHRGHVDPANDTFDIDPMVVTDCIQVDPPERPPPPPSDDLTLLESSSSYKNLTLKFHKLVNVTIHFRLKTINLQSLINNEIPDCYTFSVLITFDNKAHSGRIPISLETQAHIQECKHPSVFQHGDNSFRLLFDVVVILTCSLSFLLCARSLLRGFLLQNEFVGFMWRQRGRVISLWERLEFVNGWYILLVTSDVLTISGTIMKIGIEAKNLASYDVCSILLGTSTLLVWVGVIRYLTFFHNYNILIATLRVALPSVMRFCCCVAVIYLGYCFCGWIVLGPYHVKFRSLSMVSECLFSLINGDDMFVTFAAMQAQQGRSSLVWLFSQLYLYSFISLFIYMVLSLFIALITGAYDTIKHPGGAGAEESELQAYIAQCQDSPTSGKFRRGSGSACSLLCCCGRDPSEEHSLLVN
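TRPML1-DL cells, Tet-induced overnight (~16 h, 37 °C) at 1,500 cells/well, were loaded with Ca8 no-wash dye plus quencher for 45-90 min at room temperature. Compounds were pinned during FDSS kinetic reading; agonist 54-4 at EC80 (4 uM final) then added.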
gsp antagonist: antagonists of gsp mutant (McCune-Albright syndrome); gsp-mutant cells, cAMP HTRF, 30 min; control for the full effect not named in the record; Potency, µM (top dose mostly 76.9 µM), without a hit: top-dose activity change, negative = inhibition, actives largely listed as inhibitors; 0.4% of 340,000 active; AID 624288; active = falling curve of any shape with a large fitted effect; inconclusive = falling curve, mostly with a smaller effect; inactive = flat or rising curve; cell line not stated here;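 also: intracellular cAMP measured with PDE inhibitor Ro 20-1724 present during compound exposure; potency is read from the fitted curve at half-maximal effect; % is scaled to controls: 0 for no effect and ±100 for the full control effect; nearly all actives have a fitted effect of over 65% in size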
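Cells in G418 medium, seeded 16-24 h, 37C; buffer exchange to DPBS + 1 mM CaCl2, 0.5 mM MgCl2, 0.05% BSA; cpds in DMSO + […] (300 uM stock), 30 min 37C; HTRF cAMP detection.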
Menin-MLL FL inh: menin-MLL binding inhibition, fluorescein peptide; FP activity change, % at 61.4 µM; 290,000 tested, under 10 active; Fluorescence polarization, fluorescein-MLL peptide displacement from menin; inconclusive = falling polarisation curve, or a change in total fluorescence; inactive = total fluorescence flat and polarisation flat or rising; no compound was filed as active; the % refers to the polarisation; negative = inhibition;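 also: % of control where 0% means no effect; inhibitors lower the polarisation; unlabelled MLL peptide was the positive control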
gsp ag: activates gsp, the McCune-Albright syndrome mutation | gsp mutant cells, cAMP HTRF, 30 min; control for the full effect not named in the record | Potency, µM (doses to about 76.9 µM), inactives show at the highest dose activation (cAMP increase), usual class: activators | 0.13% of 340,000 active | AID 624287; active = well fitted activation curve with a large enough effect; inconclusive = small, poorly fitted or top-dose-only effect, or another doubt; inactive = no such curve, though single readings can be large or run the other way; cell line not stated here;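 also: phosphodiesterase inhibitor Ro 20-1724 added with compounds to block cAMP breakdown; potency is read from the fitted curve at half-maximal effect; nearly all actives have a fitted effect of over 60% in size; about a fifth of the inactives were tested at one dose only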
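Cells stably selected in G418 were plated at 2000/well, grown 16-24 hr, then given compounds in DMSO with the PDE inhibitor […] (300 uM solution added) for 30 min at 37C; cAMP was read by HTRF.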
ClpP mod: qHTS Assay for Activators of ClpP | ATP-dependent Clp protease proteolytic subunit (Bacillus subtilis (strain 168)), P80244 | purified B. subtilis ClpP, FRET peptide cleavage, 20 min | Potency, µM (doses to about 57.5 µM), for inactives: at the highest dose activity change, negative = active | 1.9% of 340,000 active | AID 651965, 2013; active = well fitted falling curve with a large enough effect; inconclusive = small, poorly fitted or top-dose-only effect; inactive = no such curve, though single readings can be large or run the other way; also: potency is read from the fitted curve at half-maximal effect; the source files actives as falling curves though it sought activators and does not explain the sign; nearly all actives have a fitted effect of over 65% in size; many hits overshoot -100%
Target sequence (P80244 whole entry, looked up): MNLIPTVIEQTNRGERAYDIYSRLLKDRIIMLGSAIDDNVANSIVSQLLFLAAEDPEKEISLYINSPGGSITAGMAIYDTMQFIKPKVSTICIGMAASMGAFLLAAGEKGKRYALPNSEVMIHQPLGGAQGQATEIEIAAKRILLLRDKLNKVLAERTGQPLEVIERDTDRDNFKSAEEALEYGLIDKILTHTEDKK
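ClpP 10 microg/mL final, pH 8 Tris/KCl buffer with BSA, glycerol, Tween-20; compound pinned in; FRET-FV substrate; RT 20 min; Ex320/Em430; ΔFRET vs ADEP 5.8 microM, DMSO, no enzyme.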
TRPML1 agonist: agonists of human TRPML1 channel; 0.12% of 410,000 active; TRPML1-expressing cells, Ca2+ dye fluorescence, FDSS; host cell line not named in the record; reference of the full effect not given here; Q9GZU1; activation, % (concentration not given with the values); in the data active = activation above about 50%; inconclusive = about 30% to 50%; inactive = below about 30%; also: 0% is about no effect; the text of the record puts the active cut at 80%
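In this qHTS format, compounds were pin-transferred onto Ca8-dye-loaded TRPML1-DL cells induced with Tet overnight, and intracellular Ca2+ fluorescence was recorded kinetically for 110 s after a 10 s baseline. A subsequent 4uM final 54-4 (EC80) addition followed by a second 110 s read served as the antagonist phase.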
Active calls of the source: *; [ ] = remark or other dose.

For O=C(NC1CC(=O)N(c2ccc(Cl)cc2)C1)C(=O)c1c[nH]c2ccccc12 (configuration not stated) the results were TRPML1 inh 3, ClpP mod -3.2% and TRPML1 agonist -0.1.
`CCS(=O)(=O)c1nc(S(=O)(=O)c2ccc(Cl)cc2)c(N2CCCC2)s1` gave TRPML1 inh 0, gsp antagonist -15%, gsp ag 13µM*, ClpP mod -1.0% and TRPML1 agonist 3.2.
`OCCCNCc1ccc(N(c2ccccc2)c2ccccc2)cc1` gave TRPML1 inh -13, gsp antagonist 14%, Menin-MLL FL inh 2.3, gsp ag inconclusive and TRPML1 agonist -0.1.
COc1ccc(N2CCN(C(=O)C3(C)CC3(Cl)Cl)CC2)cc1 (configuration not stated) was read as TRPML1 inh 25, gsp antagonist 14%, Menin-MLL FL inh 1.6, gsp ag 0%, ClpP mod -1.5% and TRPML1 agonist 3.4.
`CC1(C)CC2CC(C)(CN2C(=O)C23CCC(C)(C(=O)O2)C3(C)C)C1` (configuration not stated) gave TRPML1 inh 8, gsp antagonist 4%, Menin-MLL FL inh -1.7, gsp ag -40%[inhibitor], ClpP mod 0.5% and TRPML1 agonist 0.0.
CC(C)CCN1C(=O)CC(NNC(=O)c2ccc(S(=O)(=O)N3CCCC3)cc2)C1=O (configuration not stated) was read as TRPML1 inh 8, gsp antagonist -9%, Menin-MLL FL inh 1.2, gsp ag 0%, ClpP mod 0.7% and TRPML1 agonist -0.7.
For COc1cccc(C(=O)NC(=O)Nc2ccc(-c3cc(C(F)(F)F)nn3-c3ccccc3)cc2)c1 the results were TRPML1 inh 3, ClpP mod -2.2% and TRPML1 agonist -0.6.
`O=C(Nc1cc(Cl)ccc1N1CCOCC1)c1cnccn1` gave TRPML1 inh 0, gsp antagonist 10%, Menin-MLL FL inh -1.4, gsp ag -17%, ClpP mod 1.0% and TRPML1 agonist 0.1.
For COc1ccc2[nH]c3c(c2c1)CCN1C(=O)C(CC(=O)NCCCn2ccnc2)C[C@H](C(=O)N2CCCCC2)[C@@]31C (some centres not stated) the results were TRPML1 inh 4, gsp antagonist 8%, ClpP mod -2.4% and TRPML1 agonist 0.1.
Screening O=C(CCN1CCOCC1)NC1CCCN(Cc2ccccc2F)C1 (configuration not stated) returned TRPML1 inh 2, gsp antagonist 4%, Menin-MLL FL inh 3.7, gsp ag -43%[inhibitor], ClpP mod 0.8% and TRPML1 agonist -0.2.
CCOc1ccc(NC(=O)c2ccco2)cc1S(=O)(=O)N1CCCC1 was read as TRPML1 inh 15, gsp antagonist 0%, gsp ag -7%, ClpP mod 1.5% and TRPML1 agonist -0.3.
Screening CC1=C(C(=O)N2CCN(c3ccc(Cl)cc3)CC2)C2(CCC(C)CC2)OC1=O (configuration not stated) returned TRPML1 inh 75, ClpP mod -1.8% and TRPML1 agonist 2.6.
`CN(C(=O)CC1C(=O)NCCN1Cc1cccc(F)c1F)C1CCOCC1` (configuration not stated) gave TRPML1 inh -2, gsp antagonist 18%, gsp ag inconclusive, ClpP mod -24% and TRPML1 agonist -0.4.
Screening CCCCC(CC)C1OCC(CN2CCCCC2)O1 (configuration not stated) returned TRPML1 inh -8, gsp antagonist 11%, Menin-MLL FL inh 4.8, gsp ag -2%, ClpP mod -1.9% and TRPML1 agonist 1.6.
`CCOC(=O)c1c(NC(=O)Cc2cccs2)sc(C(=O)N2CCCCC2)c1C` gave TRPML1 inh 22, gsp antagonist 4%, Menin-MLL FL inh 3.3, gsp ag 22%, ClpP mod 0.4% and TRPML1 agonist -0.1.

Fetched by structure from above:
For COc1ccc2[nH]c3c(c2c1)CCN1C(=O)C(CC(=O)NCCCn2ccnc2)C[C@H](C(=O)N2CCCCC2)[C@@]31C (some centres not stated) the results were TRPML1 inh 4, gsp antagonist 8%, ClpP mod -2.4% and TRPML1 agonist 0.1.
`O=C(Nc1cc(Cl)ccc1N1CCOCC1)c1cnccn1` gave TRPML1 inh 0, gsp antagonist 10%, Menin-MLL FL inh -1.4, gsp ag -17%, ClpP mod 1.0% and TRPML1 agonist 0.1.

Later entries.
Screening CCOc1ccc(C(=O)NCC(=O)N2CCC3CCCCC3C2)cc1OCC (configuration not stated) returned TRPML1 inh -3, gsp antagonist -27%, Menin-MLL FL inh 1.6, gsp ag -9%[15.4 µM] and TRPML1 agonist -0.5.
`CN(C)CCCN(C(=O)CCS(=O)(=O)c1ccccc1)c1nc2cc3c(cc2s1)OCO3` gave TRPML1 inh -5, gsp antagonist -7%, gsp ag 0%[15.4 µM], ClpP mod 0.6% and TRPML1 agonist 0.9.
For Cc1ccc(C(=O)NC(C(=O)NC2CCCC2)c2ccccc2)cc1 (configuration not stated) the results were TRPML1 inh 2, gsp antagonist 9%, Menin-MLL FL inh -2.7, gsp ag -104%[inhibitor] and TRPML1 agonist -0.5.
`CCc1ccc2[nH]c(O)c(N=NC3=NC(=O)CS3)c2c1` gave gsp antagonist -12%, Menin-MLL FL inh 0.8, gsp ag -10% and ClpP mod 1.4%.
Screening CCN1C[C@@H]2[C@@H]3C(=O)N(C)C(=O)[C@@H]3[C@](C)(C1=O)N2C(=O)c1ccc(C(C)(C)C)cc1 returned TRPML1 inh 9, gsp antagonist -2%, ClpP mod 0.1% and TRPML1 agonist -0.3.
C=CCOc1ccc(C(=O)NC2CCCCC2)cc1 was read as TRPML1 inh 7, gsp antagonist -10%, Menin-MLL FL inh 2.9, gsp ag 12%, ClpP mod 2.8% and TRPML1 agonist 2.0.
CC(C)c1ccc(S(=O)(=O)N2CCC(n3c(C(F)(F)F)nc4cccnc43)CC2)cc1 was read as TRPML1 inh 5, ClpP mod -0.8% and TRPML1 agonist -0.1.
Screening COCCSc1ccccc1C(=O)Nc1ccc(Br)cc1 returned TRPML1 inh 13, gsp antagonist -8%, Menin-MLL FL inh -3.4, gsp ag -5%, ClpP mod 1.8% and TRPML1 agonist 1.1.
`COCCCN(C)C1CCN(C(=O)Nc2ccc(F)cc2)CC1` gave TRPML1 inh 29, gsp antagonist 3%, Menin-MLL FL inh 3.7, gsp ag -34%[inhibitor], ClpP mod 0.8% and TRPML1 agonist 0.1.
`CC(C)c1ccc(NC(=O)[C@H](Cc2c[nH]c3ccccc23)NC(=O)[C@@H]2Cc3ccccc3CN2)cc1` gave gsp antagonist 9%, Menin-MLL FL inh -0.3 and ClpP mod -2.9%.
CCOc1cc2c(cc1OC)C(NC(=O)c1ccco1)CC2=O (configuration not stated) was read as TRPML1 inh 5, gsp antagonist -5%, Menin-MLL FL inh -2.3, gsp ag 5% and TRPML1 agonist -0.4.
`O=C(O)Cn1c(O)c(C2=c3ccccc3=NC2=O)sc1=O` gave TRPML1 inh -2, gsp antagonist -8%, Menin-MLL FL inh -17, gsp ag inconclusive, ClpP mod -5.4% and TRPML1 agonist 0.4.
Screening NC(=O)C1CCN(C(=O)CCSc2ccc(Cl)cc2)CC1 returned TRPML1 inh -25, gsp antagonist 11%, Menin-MLL FL inh -3.1, gsp ag -17% and TRPML1 agonist 0.1.
`Cc1ccccc1-c1cc2nccc(-c3cc(Cl)ccc3O)n2n1` gave TRPML1 inh inconclusive, ClpP mod 0.7% and TRPML1 agonist 1.8.
`CCOc1ccc(CCNC(=O)C2CC(=O)N(c3ccc4c(c3)OCCO4)C2)cc1OCC` (configuration not stated) gave TRPML1 inh -17, gsp antagonist -10%, gsp ag 0%, ClpP mod 1.2% and TRPML1 agonist -1.1.
Screening Cc1c(NC(=O)c2nn3c(C(F)(F)F)cc(-c4ccccc4)nc3c2Cl)c(=O)n(-c2ccccc2)n1C returned TRPML1 inh 12, gsp antagonist -1%, Menin-MLL FL inh 7.8, gsp ag -20%[15.4 µM], ClpP mod -2.7% and TRPML1 agonist -0.7.
CCc1sc(C(=O)N2CCN(CC(=O)Nc3cccc(F)c3)CC2)cc1C was read as TRPML1 inh 5, gsp antagonist -12%, gsp ag -27%, ClpP mod 1.3% and TRPML1 agonist 0.1.
For O=S(=O)(Nc1ccc(-n2cccc2)cc1)c1ccc(Cl)cc1Cl the results were TRPML1 inh 6, gsp antagonist 7%, Menin-MLL FL inh 4.3, gsp ag 1%, ClpP mod -2.1% and TRPML1 agonist -1.1.
Screening O=C(Cn1c(SCCOc2ccc(Cl)cc2)nc2ccccc21)N1CCCCC1 returned TRPML1 inh -2, ClpP mod 1.1% and TRPML1 agonist -0.7.
Screening CN(CC(=O)Nc1ccc(F)cc1)C(=O)COC(=O)CNC(=O)c1ccc(Cl)cc1Cl returned TRPML1 inh 6, gsp antagonist -1%, gsp ag -4%[15.4 µM], ClpP mod 1.5% and TRPML1 agonist 0.1.
`CCc1nc(SCC(=O)N2CCCCCC2)c2c(=O)n(C)c(=O)n(C)c2n1` gave TRPML1 inh 1, gsp antagonist -20%, gsp ag inconclusive, ClpP mod -2.1% and TRPML1 agonist 0.1.
Screening Cn1c(Cl)c(/C=N/OC(=O)C(C)(C)C)c2ccccc21 returned TRPML1 inh -3, gsp antagonist 14%, Menin-MLL FL inh -5.6, gsp ag -1% and TRPML1 agonist -0.4.
For COc1cc(C(C)=O)ccc1OC(C)C(=O)Nc1ccc(S(=O)(=O)N2CCCC2)cc1 (configuration not stated) the results were TRPML1 inh -11, gsp antagonist -7%, gsp ag 14%, ClpP mod inconclusive and TRPML1 agonist -0.2.
O=C(O)C(Oc1ccc2cc(-c3ccc(Cl)cc3)c(=O)oc2c1)c1ccccc1 (configuration not stated) was read as TRPML1 inh 15, gsp antagonist inconclusive, Menin-MLL FL inh 6.0, gsp ag 0%, ClpP mod 4.1% and TRPML1 agonist -0.2.
For COc1ccc(CNC(=O)CCS(=O)(=O)c2cccc3nonc23)cc1 the results were TRPML1 inh -11, gsp antagonist 2%, Menin-MLL FL inh 5.6, gsp ag inconclusive, ClpP mod 0.3% and TRPML1 agonist -0.2.
`CCOc1ccc(OCC(=O)N2CCC3(CC2)CC(=O)c2ccccc2O3)cc1` gave TRPML1 inh -7, gsp antagonist inconclusive, gsp ag -6%, ClpP mod -30% and TRPML1 agonist 0.4.
Screening CN(Cc1c(C(=O)N/N=C/c2cccc(F)c2)nnn1-c1nonc1N)C1CCCCC1 returned TRPML1 inh 0, gsp antagonist -10%, Menin-MLL FL inh -3.2, gsp ag -3%, ClpP mod -1.1% and TRPML1 agonist 0.5.
Screening Cc1ccc(N2CCN(S(=O)(=O)N3CCCCCC3)CC2)cc1Cl returned TRPML1 inh inconclusive, gsp antagonist -4%, Menin-MLL FL inh 2.4, gsp ag -28%, ClpP mod -2.6% and TRPML1 agonist 1.6.
Screening COc1ccc(C2=CC3=C(Br)C(=O)C(C)(OC(=O)c4cccs4)C(=O)C3=CO2)cc1 (configuration not stated) returned TRPML1 inh 54, gsp antagonist -14%, Menin-MLL FL inh 6.5, ClpP mod -4.0% and TRPML1 agonist 0.2.
